High-throughput results as filed in PubChem BioAssay.
Ecoli rRNA inh: inhibits bacterial ribosomal RNA function over humanized ribosomes | E. coli WT GFP vs humanized-ribosome RFP mutants, fluorescence, 24 h; active compounds read low; DMSO median 0, no signal -100 | GFP signal change (wild-type ribosome), % (test concentration not listed) | 350,000 compounds, 1.6% hits | AID 720706;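 active = significant combined selectivity score with lowered wild-type GFP, culture density cut under 30%, mutant RFP and density less affected; inactive = any of these conditions unmet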; note: one replicate is shown; some compounds called inactive have numbers as strong as hits
Ecoli rRNA inh OD600: recorded beside Ecoli rRNA inh, whose call it bears; OD600 change, %; measured here: OD600 growth;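 optical density of the mix in the first replicate; 0 = DMSO median and -100 = no signal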
Ecoli rRNA inh RFP: recorded beside Ecoli rRNA inh, whose call it bears; RFP signal change, %; measured here: RFP humanized mutant strains;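 first replicate; 0 = DMSO median and -100 = no signal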
Numbers without * were called inactive. An excerpt. The share of hits here may be higher or lower than overall.

SMILES	Ecoli rRNA inh	Ecoli rRNA inh OD600	Ecoli rRNA inh RFP
COc1ccc(S(=O)(=O)Nc2ccc3c(c2)C(=O)N([C@@H](C)CO)C[C@@H](C)[C@H](CN(C)S(=O)(=O)c2c(C)noc2C)OCCCC[C@@H](C)O3)cc1	-4	-4	-0.3
O=C(C[C@@H]1C[C@@H]2c3cc(NC(=O)NC4CCCC4)ccc3O[C@@H]2[C@@H](CO)O1)NCc1ccc(Oc2ccccc2)cc1	-3	0	2.0
O=C(C[C@H]1CC[C@@H]2[C@H](COC[C@H](O)CN2CC2CCCCC2)O1)NCC1CC1	-9	-15	2.7
CO[C@H]1CN(C)C(=O)c2ccc(NC(C)=O)cc2OC[C@@H](C)NC[C@@H]1C	2	2	-2.0
CC1(C2CC(=O)c3c(O)ccc(O)c3C2)OCCO1 (stereo unspecified)	2	5	-1.1
CO[C@H]1CN(C)C(=O)c2ccc(NC(C)=O)cc2OC[C@@H](C)N(Cc2cc(F)ccc2F)C[C@H]1C	-3	-5	-1.2
CCCc1cn(CC[C@@H]2CC[C@@H](NC(=O)C3CCC3)[C@H](CO)O2)nn1	2	-5	-0.3
CCCNC(=O)N1[C@@H]2CN(C(=O)C3CC3)c3ccccc3[C@@H]2[C@@H]1CO	5	14	0.6
C[C@H](CO)N1C[C@H](C)[C@@H](CN(C)S(=O)(=O)c2cn(C)cn2)Oc2ccc(NC(=O)c3ccncc3)cc2C1=O	3	0	-0.7
Cc1noc(C)c1NC(=O)Nc1cccc2c1O[C@H](CN(C)C(=O)Nc1cccc3ccccc13)[C@@H](C)CN([C@@H](C)CO)C2=O	4	1	4.3
CC(C)NC(=O)N(C)C[C@H]1Oc2ccc(NS(=O)(=O)c3cn(C)cn3)cc2C(=O)N([C@@H](C)CO)C[C@@H]1C	4	11	-0.1
C[C@@H]1CN([C@@H](C)CO)C(=O)CCCn2cc(nn2)CO[C@@H]1CN(C)C(=O)CCC(F)(F)F	1	0	-0.5
CC1(C(=O)NS(=O)(=O)c2cccc(C#N)c2)CCN1C(=O)Cc1cc(F)ccc1F (stereo unspecified)	16	17	1.8
CO[C@H]1CN(C)C(=O)c2ccc(NC(=O)C3CCC3)cc2OC[C@@H](C)NC[C@H]1C	1	1	-1.2
Cc1noc(C)c1S(=O)(=O)N(C)C[C@@H]1OCCCC[C@@H](C)Oc2ccc(NC(=O)Nc3ccc(F)cc3)cc2C(=O)N([C@@H](C)CO)C[C@@H]1C	3	1	-1.8
NNC(=O)CN1C(=O)C2(OCCO2)c2ccccc21	12	12	0.5
COc1ccc2c3c([nH]c2c1)[C@@H](CO)N(C(=O)Nc1ccc(F)cc1)CC31CCN(S(=O)(=O)c2cn(C)cn2)CC1	2	0	-2.3
CCCCCC[n+]1ccccc1/C=C/c1ccc(N(C)C)cc1	-54	-80	42
O=C(C[C@@H]1CC[C@@H]2[C@H](COC[C@H](O)CN2Cc2cccc(-c3ccncc3)c2)O1)N1CCCCC1	-7	-13	-0.3
CN1c2ccc(-c3cccc(F)c3)cc2[C@H]2[C@H](CCN2C(=O)c2ccncc2)[C@H]1CO	0	-36	-2.9

Record cards, as listed above. Order of screens: Ecoli rRNA inh, Ecoli rRNA inh OD600, Ecoli rRNA inh RFP
C[C@H](CO)N1C[C@H](C)[C@@H](CN(C)S(=O)(=O)c2cn(C)cn2)Oc2ccc(NC(=O)c3ccncc3)cc2C1=O reads 3, 0, -0.7
CCCCCC[n+]1ccccc1/C=C/c1ccc(N(C)C)cc1 reads -54, -80, 42
C[C@@H]1CN([C@@H](C)CO)C(=O)CCCn2cc(nn2)CO[C@@H]1CN(C)C(=O)CCC(F)(F)F reads 1, 0, -0.5
Cc1noc(C)c1S(=O)(=O)N(C)C[C@@H]1OCCCC[C@@H](C)Oc2ccc(NC(=O)Nc3ccc(F)cc3)cc2C(=O)N([C@@H](C)CO)C[C@@H]1C reads 3, 1, -1.8
NNC(=O)CN1C(=O)C2(OCCO2)c2ccccc21 reads 12, 12, 0.5

Continued:
SMILES	Ecoli rRNA inh	Ecoli rRNA inh OD600	Ecoli rRNA inh RFP
CN1CCN(C(=O)c2cc3c(c(-c4cccc(C#CC(C)(C)O)c4)n2)[C@@H](CCO)N(S(=O)C(C)(C)C)C3)CC1 (stereo partly specified)	38	30	7.3
O=C(C[C@H]1CC[C@H]2[C@@H](COC[C@H](O)CN2CC2CC2)O1)NCc1ccc(Cl)cc1	0	6	6.4
CC1(Oc2cccc(C#N)c2)CCN(Cc2ccccc2OC(F)F)C1 (stereo unspecified)	-1	7	-1.2
CC(C)NC(=O)OCc1c(COC(=O)NC(C)C)c([N+](=O)[O-])n2c1CCC2	1	-2	-1.5
O=C(NCC[C@H]1CC[C@H](NC(=O)C2CCOCC2)[C@H](CO)O1)c1ccc(F)cc1	-1	4	-5.0
CCCC(=O)Nc1ccc2c(c1)OC[C@H](C)N(Cc1ccc(-c3ccccn3)cc1)C[C@@H](C)[C@H](OC)CN(C)C2=O	-5	-15	4.4
Cc1ccc(-c2ccc3c(c2)O[C@H](CN(C)C(=O)Nc2ccc(F)cc2)[C@@H](C)CN([C@@H](C)CO)S3(=O)=O)cc1	-3	-3	4.8
COCC#Cc1cnc2c(c1)C(=O)N([C@H](C)CO)C[C@H](C)[C@@H](CN(C)C(=O)Nc1c(C)noc1C)O2	2	12	-3.7
C[C@@H]1CN([C@@H](C)CO)C(=O)c2cc(NC(=O)C3CC3)ccc2O[C@@H]1CN(C)Cc1ccc(C(F)(F)F)cc1	-7	-10	0.8
CC1(C)OC(=O)C2=C(C[C@@H](C3CCCC3)O[C@H]2c2ccc(Cl)cc2)O1	-1	-1	-4.0
C[C@@H]1CN([C@@H](C)CO)C(=O)Cc2cc(NS(=O)(=O)c3cccs3)ccc2O[C@@H]1CN(C)S(=O)(=O)c1cn(C)cn1	4	6	1.3
C[C@@H]1CN([C@H](C)CO)S(=O)(=O)c2ccc(-c3ccccc3)cc2O[C@@H]1CN(C)C(=O)c1ccccc1F	-9	-17	11
C[C@H]1CCCCO[C@H](CN(C)C(=O)C2CCCCC2)[C@@H](C)CN([C@@H](C)CO)C(=O)c2cc(NS(C)(=O)=O)ccc2O1	-2	5	1.2
C[C@@H]1CCCCO[C@H](CN(C)Cc2ccncc2)[C@H](C)CN([C@H](C)CO)C(=O)c2cc(NS(C)(=O)=O)ccc2O1	0	-12	4.0
COc1ccc(CN(C)C[C@@H]2Oc3ccc(NC(=O)C4CCCCC4)cc3CC(=O)N([C@H](C)CO)C[C@@H]2C)cc1	1	0	-1.7
C[C@H](CO)N1C[C@H](C)[C@@H](CN(C)Cc2ccc(C(=O)Nc3ccccc3N)cc2)Oc2ccc(NC(=O)Cn3cnnn3)cc2CC1=O	2	11	-3.1
C[C@@H]1CCCCO[C@H](CN(C)S(=O)(=O)c2cn(C)cn2)[C@@H](C)CN([C@@H](C)CO)C(=O)c2cc(NC(=O)NC3CCCCC3)ccc2O1	5	1	0.7
Cc1noc(C)c1NC(=O)N(C)C[C@H]1Oc2ccc(NS(=O)(=O)c3cccs3)cc2CC(=O)N([C@@H](C)CO)C[C@@H]1C	1	3	-2.7
COCC#Cc1cnc2c(c1)C(=O)N([C@@H](C)CO)C[C@H](C)[C@H](CN(C)C(=O)Cc1ccncc1)O2	10	10	1.6
COc1ccc(NC(=O)N(C)C[C@H]2OCCCC[C@@H](C)Oc3ccc(NS(=O)(=O)c4c(C)noc4C)cc3C(=O)N([C@H](C)CO)C[C@H]2C)cc1	1	-8	0.1

The closing 2 entries of the part before open the next one.
SMILES	Ecoli rRNA inh	Ecoli rRNA inh OD600	Ecoli rRNA inh RFP
COCC#Cc1cnc2c(c1)C(=O)N([C@@H](C)CO)C[C@H](C)[C@H](CN(C)C(=O)Cc1ccncc1)O2	10	10	1.6
COc1ccc(NC(=O)N(C)C[C@H]2OCCCC[C@@H](C)Oc3ccc(NS(=O)(=O)c4c(C)noc4C)cc3C(=O)N([C@H](C)CO)C[C@H]2C)cc1	1	-8	0.1
Cc1noc(C)c1NC(=O)Nc1ccc2c(c1)CC(=O)N([C@H](C)CO)C[C@H](C)[C@H](CN(C)C(=O)Nc1ccc(F)cc1)O2	6	3	-1.4
CO[C@@H]1CN(C)C(=O)c2ccc(NC(=O)CN(C)C)cc2OC[C@@H](C)N(C(=O)c2ccncc2)C[C@H]1C	1	2	1.3
COc1ccc(CNC(=O)C[C@@H]2CC[C@H]3[C@@H](COc4ccc(NC(=O)C5CC5)cc4C(=O)N3C)O2)cc1	2	10	0.4
C[C@@H]1CN([C@H](C)CO)C(=O)c2cc(-c3ccncc3)cnc2O[C@H]1CN(C)Cc1cccnc1	12	15	-0.4
O=C(O)C[C@H]1CC[C@@H](NC(=O)Nc2cc(F)ccc2F)[C@H](CO)O1	3	-6	-0.5
C[C@@H]1CN([C@@H](C)CO)C(=O)c2cc(NC(=O)Nc3cccc4ccccc34)ccc2O[C@H]1CN(C)CC1CCCCC1	-6	-7	7.5
CC1(C(=O)NCc2cccc(Cl)c2)Cc2c(-c3cccc(C(N)=O)c3)ccnc2O1 (stereo unspecified)	-3	-22	-3.7
COCC(=O)N1CC(=O)N2[C@H](CO)[C@@H](c3ccc(C#CC(C)C)cc3)[C@H]2C1	7	25	-1.5
Cc1noc(C)c1NC(=O)N[C@@H]1CC[C@H](CC(=O)NCCCN(C)C)O[C@@H]1CO	2	9	-1.3
Cc1noc(C)c1S(=O)(=O)N(C)C[C@@H]1Oc2c(cccc2N(C)C)C(=O)N([C@@H](C)CO)C[C@H]1C	-3	-9	-1.5
COc1ccccc1-c1ccccc1[C@H]1[C@@H](C#N)N(C(=O)CN(C)C)[C@@H]1CO	7	9	-0.7
COCC(=O)N1[C@H](C#N)[C@@H](c2ccccc2)[C@H]1CO	6	23	-1.1
C[C@H]1CCCCO[C@H](CN(C)CC2CC2)[C@@H](C)CN([C@@H](C)CO)C(=O)c2cc(NC(=O)Nc3ccccc3)ccc2O1	2	2	-0.7
C[C@H](CO)N1C[C@H](C)[C@@H](CN(C)Cc2ccc(Oc3ccccc3)cc2)Oc2c(NC(=O)c3ccc(-c4nccs4)cc3)cccc2C1=O	4	6	0.7
C[C@@H]1CN([C@@H](C)CO)C(=O)Cc2cc(NC(=O)NC3CCCCC3)ccc2O[C@@H]1CN(C)C(=O)Nc1ccc(C(F)(F)F)cc1	-3	-10	3.6
COc1ccccc1-c1ccc([C@H]2[C@@H](CO)N[C@@H]2CNC(=O)C2CC2)cc1	-3	-7	-2.2
COc1ccccc1NC(=O)N1C[C@H]2[C@@H](c3ccccc31)[C@H](CO)N2CC1CCOCC1	4	5	-1.3
COc1ccc(CN(C)C[C@@H]2OCCCC[C@H](C)Oc3ccc(NS(=O)(=O)c4c(C)noc4C)cc3C(=O)N([C@H](C)CO)C[C@@H]2C)cc1	0	5	3.1
C[C@@H]1CN([C@@H](C)CO)C(=O)Cc2cc(N(C)C)ccc2O[C@H]1CN(C)S(=O)(=O)c1ccc(F)cc1	-7	-8	0.9
CCN(C[C@H]1[C@H](c2ccccc2)[C@@H](CO)N1C(C)=O)C(=O)c1cccc(F)c1	-1	3	4.5
COc1ccc2c3c(n(C)c2c1)[C@H](CO)N(C)CC31CCN(C(=O)c2ccccc2F)CC1	-4	-10	-2.1
C#Cc1cccc(Nc2nc(NCCOC)nc3ccsc23)c1	-1	-9	2.9
C[C@@H]1CN([C@H](C)CO)C(=O)Cc2cc(N(C)C)ccc2O[C@@H]1CN(C)S(=O)(=O)c1ccc(F)cc1	2	13	0.2
COc1ccc(S(=O)(=O)Nc2ccc3c(c2)C(=O)N([C@H](C)CO)C[C@@H](C)[C@H](CN(C)C(=O)Nc2ccc(C(F)(F)F)cc2)OCCCC[C@H](C)O3)cc1	7	3	0.3
C[C@H](CO)N1C[C@H](C)[C@@H](CN(C)C(=O)c2ccccn2)Oc2cc(C#Cc3ccccc3)ccc2S1(=O)=O	-10	-34	23
COc1ccc(C(O)c2ncc(-c3cccc(OC)c3)[nH]2)cc1 (stereo unspecified)	-6	-6	1.2
Cc1noc(C)c1S(=O)(=O)N(C)C[C@H]1Oc2ccc(NC(=O)C3CC3)cc2CC(=O)N([C@@H](C)CO)C[C@H]1C	2	8	-2.4
C[C@@H]1CN([C@@H](C)CO)C(=O)c2cc(NS(=O)(=O)c3cccs3)ccc2O[C@@H]1CN(C)C(=O)Nc1cccc2ccccc12	-2	-6	3.8
CC(C)C#Cc1ccc2c(c1)O[C@H](CN(C)CC1CCOCC1)[C@H](C)CN([C@@H](C)CO)S2(=O)=O	4	-2	1.8
C[C@@H]1CN([C@H](C)CO)S(=O)(=O)c2ccc(C3=CCCC3)cc2O[C@@H]1CN(C)C(=O)c1ccccn1	-4	4	-1.0
C[C@@H]1CN([C@@H](C)CO)S(=O)(=O)c2ccc(-c3ccc(F)cc3)cc2O[C@H]1CN(C)C	0	-15	-1.5

Molecules listed so far that have a thiophene ring, fused or not, in the order listed:
SMILES	Ecoli rRNA inh	Ecoli rRNA inh OD600	Ecoli rRNA inh RFP
C[C@@H]1CN([C@@H](C)CO)C(=O)Cc2cc(NS(=O)(=O)c3cccs3)ccc2O[C@@H]1CN(C)S(=O)(=O)c1cn(C)cn1	4	6	1.3
Cc1noc(C)c1NC(=O)N(C)C[C@H]1Oc2ccc(NS(=O)(=O)c3cccs3)cc2CC(=O)N([C@@H](C)CO)C[C@@H]1C	1	3	-2.7
C#Cc1cccc(Nc2nc(NCCOC)nc3ccsc23)c1	-1	-9	2.9
C[C@@H]1CN([C@@H](C)CO)C(=O)c2cc(NS(=O)(=O)c3cccs3)ccc2O[C@@H]1CN(C)C(=O)Nc1cccc2ccccc12	-2	-6	3.8
